High-throughput results deposited in PubChem BioAssay by National Center for Advancing Translational Sciences (NCATS).
VDR inh: blocks the human vitamin D receptor; P11473; VDR-SRC2-3 peptide fluorescence polarization, 2 h; Potency, µM, for inactives: max response, negative = inhibition, actives largely listed as inhibitors; 400,000 tested, 0.93% active; AID 504847; active = well fitted inhibition curve with a large enough effect; inconclusive = small, poorly fitted or top-dose-only effect, or another doubt; inactive = no such curve, though single readings can be large or run the other way; note: series mostly up to about 120 µM
Target sequence (P11473 whole entry, looked up): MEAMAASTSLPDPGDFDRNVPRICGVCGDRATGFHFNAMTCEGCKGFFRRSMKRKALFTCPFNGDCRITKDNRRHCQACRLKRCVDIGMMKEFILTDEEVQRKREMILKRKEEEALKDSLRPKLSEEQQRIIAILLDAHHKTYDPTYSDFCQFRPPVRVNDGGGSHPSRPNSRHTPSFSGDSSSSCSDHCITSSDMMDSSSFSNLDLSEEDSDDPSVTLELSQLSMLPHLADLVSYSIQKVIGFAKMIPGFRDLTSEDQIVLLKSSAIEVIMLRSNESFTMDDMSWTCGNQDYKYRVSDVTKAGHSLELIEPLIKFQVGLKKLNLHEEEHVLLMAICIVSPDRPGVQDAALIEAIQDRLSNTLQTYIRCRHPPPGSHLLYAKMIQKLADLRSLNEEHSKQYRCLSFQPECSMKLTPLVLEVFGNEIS
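Reagent solutions, kept cold and dark, are dispensed first; compounds are then pinned in at 23 nl, plates briefly spun, and incubated 2 h at ambient temperature. Inhibition of VDR–SRC2-3 peptide binding is read by fluorescence polarization.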
* marks the source's active call; other numbers are inactive results; ? = inconclusive; & = joins results of further samples; [ ] = dose if it differs, or a comment. % is set by controls: 0 for no effect and ±100 for the full control effect; potency is the fitted concentration of half-maximal effect.

SMILES	VDR inh
CCOC(=O)C1CCN(C(=O)Cn2nc(C)n3c(cc4sccc43)c2=O)CC1	-11%
COc1cc(C[C@@H]2C(=O)OC[C@H]2Cc2ccc(OC)c(OC)c2)ccc1O	-10%
COc1cccc(NC(=O)CN(C)C(=O)/C=C/c2ccc3ccccc3n2)c1	-5%
C/C(=N\NC(=O)c1cccc(C)c1O)c1ccc(NC(=O)Cc2ccccc2)cc1	0%
O=C(COC(=O)c1cccc(S(=O)(=O)N2CCCCC2)c1)NCc1ccccc1	-1%
COCCCNC(=O)[C@H](CSCc1ccccc1)N1Cc2ccccc2C1=O	-23%
COc1ccc(CCNC(=O)c2cc3c(s2)-c2ccccc2OC3)cc1OC	8%
Cc1cc(N=Cc2c(O)ccc3cc(Br)ccc23)no1	-16%
CCC(C(=O)O)n1nnc(-c2ccc(-c3ccc(OC)cc3)cc2)n1 (stereo unspecified)	-7%
O=C(Nc1ccccc1Cl)c1ccc(COc2ccc3c(c2)CCC3)cc1	-20%
COc1ccc(OC)c(C2C(C(=O)c3cccs3)=C(O)C(=O)N2c2cc(C)on2)c1 (stereo unspecified)	-14%
COC(=O)Cc1[nH]n(-c2nc3ccccc3s2)c(=O)c1C(C)=Nc1ccc(OC)cc1	-21%

Some of the entries so far, bar-delimited.
mol | VDR inh
COc1ccc(CCNC(=O)c2cc3c(s2)-c2ccccc2OC3)cc1OC | 8%
COc1ccc(OC)c(C2C(C(=O)c3cccs3)=C(O)C(=O)N2c2cc(C)on2)c1 (stereo unspecified) | -14%
COc1cccc(NC(=O)CN(C)C(=O)/C=C/c2ccc3ccccc3n2)c1 | -5%
CCOC(=O)C1CCN(C(=O)Cn2nc(C)n3c(cc4sccc43)c2=O)CC1 | -11%
COCCCNC(=O)[C@H](CSCc1ccccc1)N1Cc2ccccc2C1=O | -23%
COc1cc(C[C@@H]2C(=O)OC[C@H]2Cc2ccc(OC)c(OC)c2)ccc1O | -10%

3 compounds drawn at random from the list so far:
SMILES	VDR inh
Cc1cc(N=Cc2c(O)ccc3cc(Br)ccc23)no1	-16%
CCC(C(=O)O)n1nnc(-c2ccc(-c3ccc(OC)cc3)cc2)n1 (stereo unspecified)	-7%
CCOC(=O)C1CCN(C(=O)Cn2nc(C)n3c(cc4sccc43)c2=O)CC1	-11%

Continued.
SMILES	VDR inh
Clc1ncn(C23CC4CC(CC(C4)C2)C3)n1	-7%
O=C(CSc1nnc2scc(-c3ccc(Cl)cc3)n12)Nc1ccc(F)cc1	5%
O=Cc1s/c(=N\S(=O)(=O)c2ccccc2)n(CCCCl)c1Cl	22µM*
Cc1nn(CC(=O)N2CCCCC2)c(=O)c2nn(-c3ccccc3)c(C)c12	-10%
COc1cccc(CNC(=O)N[C@@H](CC(C)C)C(=O)O)c1	0%
Cc1c(C(=O)NCCN(C)C)oc2c1-c1nn(Cc3ccccc3Cl)cc1CC2	-4%
CC(C)C(=O)Nc1nc2cc3c(cc2s1)OCCO3	23%
O=C(CN1CCN(C/C=C/c2ccccc2)CC1)Nc1ccccc1C(=O)NC1CC1	-19%
COCCNCc1cc(C)n(-c2cc(S(=O)(=O)N3CCOCC3)ccc2N2CCCC2)c1C	5%
CCn1nc(C)cc1C(=O)OCC(=O)c1ccc(Cl)cc1	-9%
Cc1cc(C)n2nc(C(=O)OCC(=O)N(C)CC(=O)Nc3ccccc3Cl)nc2n1	-14%
COc1ccc(CCC(C)NCc2cccc(Br)c2)cc1 (stereo unspecified)	-12%

Brought forward from above: two entries; new compounds follow.
SMILES	VDR inh
Cc1cc(C)n2nc(C(=O)OCC(=O)N(C)CC(=O)Nc3ccccc3Cl)nc2n1	-14%
COc1ccc(CCC(C)NCc2cccc(Br)c2)cc1 (stereo unspecified)	-12%
Cc1ccc(CNC(=O)CC2(CC3=NS(=O)(=O)c4ccccc4N3)CCCC2)cc1	-5%
CCOC(=O)Cn1nc(NC(=O)COc2ccc(F)cc2)cc1C	0%
COc1ccc(S(=O)(=O)NCCCCOc2ccc(Cl)cc2)cc1	22%
O=S(=O)(NCc1ccccn1)c1cc(OCC(F)(F)F)ccc1OCC(F)(F)F	-16%
OC(CNCc1ccccc1F)COc1cccc2ccccc12 (stereo unspecified)	11%
CC1CCCN(S(=O)(=O)c2ccc([N+](=O)[O-])cc2)C1 (stereo unspecified)	1%
O=C(NNC(=O)C1CCN(S(=O)(=O)c2ccccc2)CC1)c1ccccc1O	-16%
N=c1c2c3c(sc2ncn1N)CCCC3	-30%
CCS(=O)(=O)N1Cc2ccccc2CC1C(=O)Nc1ccc(OC)cc1 (stereo unspecified)	-12%
O=C(Nc1cccc(Cl)c1)c1ccc(Cn2cc(Cl)cn2)cc1	-17%
Cc1cc(=O)oc(C)c1C(=O)N1CCN(Cc2ccc3c(c2)OCO3)CC1	-6%
O=C(Nc1c(C(=O)Nc2cccc(F)c2)oc2ccccc12)c1cc2ccccc2o1	-2%
O=C(C[C@H]1C/C=C\C[C@H](NC(=O)OCC2c3ccccc3-c3ccccc32)C(=O)OC[C@H]2CCCN2C1=O)NCCO	1%
O=C(c1cccc(C(F)(F)F)c1)C1CCCN(C(=O)/C=C/c2cnc[nH]2)C1 (stereo unspecified)	-19%
Cc1ccc(-c2nnn(Cc3nc(N)nc(N4CCOCC4)n3)n2)cc1	-10%
CC(C)(C)c1ccc(SCCc2cccnc2)cc1	-9%
Cc1cccc(C(=O)NCc2ccco2)c1	-8%
Cc1ccc2cc(CCNS(=O)(=O)c3ccc(F)cc3)c(=O)[nH]c2c1C	-18%
CCN(CC)c1ccc(NC(=O)COC(=O)CCC(=O)c2cccs2)cc1	-12%
Nc1c(C(=O)N/N=C/c2cccnc2)oc2nc(-c3ccccc3)cc(-c3ccco3)c12	1%
COc1ccccc1N1CC(C)(C)C(=O)N(C(=O)c2ccc(C)cc2)C1=S	-5%
C=CCn1c(C)nnc1SCC(=O)c1[nH]c(C)c(C(C)=O)c1C	-4%
CCN1CCc2c(sc(NC(=O)c3ccc(S(=O)(=O)N4CCCC(C)C4)cc3)c2C(=O)OC)C1 (stereo unspecified)	-1%
Cc1cccc(NC(=O)/C(C#N)=C\c2ccc(C(=O)O)cc2)c1	?
C[C@H](CO)N1C[C@H](C)[C@@H](CN(C)C(=O)Nc2ccc3c(c2)OCO3)Oc2c(NS(=O)(=O)c3ccc(F)cc3)cccc2C1=O	0%
Cc1ccccc1OCCNC(=O)c1ccco1	-5%
CC(OC(=O)/C=C/c1cccc(Cl)c1)C(=O)NC1CCCCC1C (stereo unspecified)	-12%
CNc1snc(C)c1C(=O)OCC(=O)Nc1ccc(C)cc1F	-14%
COc1cccc(C(=O)NCCN2C(=O)S/C(=C/c3cccs3)C2=O)c1OC	-17%
Cc1c(C(=O)O)cccc1-n1c(C)cc(/C=N/Nc2ccc([N+](=O)[O-])cn2)c1C	-18%
COc1ccc(N2CCN(CCCNC(=O)C3(S(=O)(=O)c4ccc(Cl)cc4)CC3)CC2)cc1	2%
COc1ccc(-c2n(Cc3ccccc3)c3ccccc3[n+]2Cc2ccccc2)cc1	6%
COc1cc(NC(=O)c2cc(Cl)c(OC)c(Cl)c2)ccc1NC(=O)c1cc2ccccc2o1	-10%
O=C(NC(Cc1ccc2c(c1)OCO2)C(=O)NC(Cc1ccccc1)C(=O)O)c1ccccc1 (stereo unspecified)	16%
COc1cc2ccccc2cc1C(=O)N(CCN(C)C)c1nc2ccc(C)cc2s1	10%
Cc1nn(Cc2ccccc2)c(C)c1C(=O)Nc1ccc(N2CCOCC2)cc1	9%
COC(=O)C(Cc1c[nH]c2ccccc12)NC(=O)CNC(C)=O (stereo unspecified)	0%
COc1ccc(-c2nc(SCC(=O)NCC3CCCO3)c(-c3ccc(Cl)cc3)[nH]2)cc1 (stereo unspecified)	-13%
Cc1noc(C)c1C(=O)N1CCC2(CCN(C(=O)NC(C)C)CC2)CC1	-2%
O=c1cc(CSc2nnnn2-c2ccccc2)nc2scc(-c3ccccc3)n12	8%
Cc1ccc(-c2nc3c(=O)n(-c4ccccc4)c4c(c(=O)n(C)c(=O)n4C)c3o2)cc1	3%
Cc1cc(C)nc(SC(C(=O)O)c2ccccc2)n1 (stereo unspecified)	14%
COc1ccc(N2CCN(C(=O)CCS(=O)(=O)c3ccc(C)cc3)CC2)cc1	-14%
Cc1ccccc1NC(=O)C[n+]1cc(-c2ccccc2)n2c1CCC2	9%
Cc1cc(C)c2oc(C(=O)Nc3ccc(S(=O)(=O)Nc4nccs4)cc3)cc(=O)c2c1	8%
O/N=C1\CCCc2nnc3c(c21)CCCC3	0%
CCN1C(=O)[C@H]2[C@@H](c3ccc(C)cc3)N3C(=O)N(c4cccc(Br)c4)C(=O)[C@@]3(CC)[C@H]2C1=O	4%
Cc1ccc(NC(=O)Cn2c(=O)c(C(F)(F)F)nc3ccccc32)c(C)c1	2%
c1cnc(NC2C3CC4CC(C3)CC2C4)nc1 (stereo unspecified)	2%
COc1ccc(-c2noc(CCC(=O)NCc3cc(Br)ccc3OC)n2)cc1	10%
O=C(Nc1ccccn1)c1ccc(-c2ccccc2)cc1	8%
CC1=C(C#N)C(NC(=O)c2ccc(C)cc2)(C(F)(F)F)C(=O)N1 (stereo unspecified)	-13%
CCc1ccc(NC(=S)N2CCCCCCC2)cc1	-11%
COc1ccc(NC(=O)Nc2c(C)n(C)n(-c3ccccc3)c2=O)c(OC)c1	-6%
O=C(COC(=O)C1=COCCO1)Nc1cccc(Oc2ccccc2)c1	7%
Cc1cc(C(=O)NNC(=O)/C=C/c2ccco2)c(C)o1	?
CCn1c(=O)c(C(=O)NNC(=O)Cc2ccccc2)c(O)c2ccccc21	-12%
CC[C@H](C)[C@@H](CN[C@H](CCCCNC)CNC)NCC1CCCC1	14%
Cn1cccc1C(=O)NC(=O)COC(=O)c1cc(Cl)ccc1[N+](=O)[O-]	-12%
Cc1ccccc1Cn1ccc(NC(=O)c2cc3nc(-c4ccco4)cc(C(F)(F)F)n3n2)n1	2%

Next section.
SMILES	VDR inh
COc1ccccc1N1CCN(/N=C(\C)c2ccccc2O)CC1	-24%
CCN(C(=O)c1ccc(=O)n(C)n1)c1c(N)n(Cc2ccccc2)c(=O)[nH]c1=O	-6%
Cc1cc(C)c(S(=O)(=O)NCc2cn3c(C)csc3n2)cc1C	13%
CCN(CC)CCOC(=O)c1ccc(NC(=O)Cn2ncc3c2-c2cc(C)ccc2OC3)cc1	4%
Cc1onc(C(=O)N2CCC(Cc3ccccc3)CC2)c1[N+](=O)[O-]	0%
Cc1ccc(C(=O)N/C(=C\c2ccco2)C(=O)NCCCn2ccnc2)cc1C	8%
CN(C)c1ccc(CNC(=O)c2cccn2-c2nnc(N3CCCCC3)s2)cc1	0%
CCOc1ncccc1C(=O)OCC(=O)Nc1ccc(C(C)C)cc1	-4%
Cc1ccc(S(=O)(=O)N(C)c2ccc(OC(=O)c3cccs3)cc2)cc1	-15%
Cc1cc(C)c(NC(=O)CCCN2CCCC2)c(C)c1	?
CC(C)CC(c1nnnn1C1CCCCC1)N1CCN(c2ncccn2)CC1 (stereo unspecified)	4%
O=[N+]([O-])c1ccc(N2CCCCC2)nc1N1CCCCC1	2%
COc1ccc(NC(=O)CCc2c(C)nn(-c3ccc(N4CCCCC4)nn3)c2C)cc1Cl	5%
Cc1ccnc(NS(=O)(=O)c2ccc(NC(=O)c3oc4ccc(F)cc4c3C)cc2)n1	3%
Cc1cc(NC(=O)CSc2nc3c([nH]c4ccccc43)c(=O)n2-c2cccc(C(F)(F)F)c2)no1	11%
O=S(=O)(c1cccc2nsnc12)N1CCN(C/C=C\c2ccccc2)CC1	15%
O=C(Cn1c(C(F)(F)F)nc2ccccc21)NCCN1CCCC1	-4%
O=C(CNCc1ccccc1)Nc1cccc(Cl)c1Cl	32%[activator]
Cc1ccc(/C=C/c2onc(C)c2S(=O)(=O)N2CCC(C(=O)Nc3cccc(C#N)c3)CC2)cc1	-6%
CCCCn1c(N)c(N(CC(C)C)C(=O)c2ccc([N+](=O)[O-])o2)c(=O)[nH]c1=O	-2%
C/C(CCc1ccccc1)=N\NC(=O)c1ccccc1	-2%
CCN1CCN(C(=O)c2cc(S(=O)(=O)Nc3ccc(S(C)(=O)=O)cc3)ccc2Cl)CC1	5%
CCc1ccc(-n2c(=O)c3cccnc3n2CC(=O)Nc2ccccc2C(F)(F)F)cc1	12%
CCn1cc(C=C2C(=O)c3ccccc3C2=O)c2ccccc21	-3%
CC(C)C(=O)OCC(=O)Nc1ccc2c(c1)CCC2	-6%
COc1ccccc1C(=O)NNC(=S)NC(=O)c1ccco1	-27%
Cc1ccc(CC(=O)N(C)CC(=O)Nc2ccc(N3CCOCC3)cc2)cc1C	9%
CC(=O)Nc1nonc1-c1nc2ccccc2n1Cc1ccccc1Br	6%
Oc1ccccc1C1=Nc2ccccc2N=C(c2cccs2)C1	-4%
CCOc1nc(Nc2ccc(OC)cc2)nc(N2CCOCC2)n1	-26%
C=CCOc1ccc(C2NC(=S)NC3=C2CCc2ccccc23)cc1 (stereo unspecified)	6%
NNC(=O)c1cccc(Cn2cc(Br)c([N+](=O)[O-])n2)c1	-18%
COC(=O)C(Nc1ccccc1Cl)(c1cc(C)c(O)c(C)c1)C(F)(F)F (stereo unspecified)	6%
FC(F)(F)c1cccc(-n2cccc2/C=N/n2cnnc2)c1	-9%
C[C@@H]1[C@H](c2ccccc2)Oc2ccc(Cl)cc2S(=O)(=O)N1CC1CCCN1C(=O)OC(C)(C)C (stereo partly specified)	?
CSCCC(NC(=O)c1ccccc1Cl)C(=O)N1CC(C)OC(C)C1 (stereo unspecified)	3%
CC(=O)Nc1ccc(S(=O)(=O)Nc2ccc(NC(=O)c3ccco3)cc2)cc1	1%
O=C(c1ccc(F)cc1)N1CCC(C(=O)N2CCN(c3ncccn3)CC2)CC1	0%
COc1ccccc1NC(=O)COc1ccc(-c2nn(C)c(=O)c3ccccc23)cc1	4%&-12%
Nc1nc(-c2ccc3c(c2)OCCO3)c(CC(=O)O)s1	-20%

Only part of the results is shown; rates above refer to the full screens.
